From PubChem
A1 apoptosis 2 – A1 inhibitors via caspase activation, primary screen, cell-based, luminescence, HTS, two replicates. MEF A1-2A-BIM cells, caspase-Glo luminescence, 3 h; percent of clofoctol response, DMSO zero. caspase activation, % (test concentration not listed). AID 2465, 2010. 24,000 tested, under 10 active; in the data active = caspase activation above about 5.9%;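 note: wells of about 30 µL received 50 nL stock; the first replicate is given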
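Material: A1-2A-BIM-expressing MEF cells. Buffer or medium: RPMI-1640 plus 10% FBS. Incubation: cells settled overnight, compound exposure 3 h at 37 °C, 5% CO2. Signal: Caspase-Glo 3/7 luminescence, 1 h at room temperature.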
* = called active by the depositor.

SMILES	A1 apoptosis 2
C[C@H](CO)N1C[C@H](C)[C@H](CN(C)C(=O)Nc2ccccc2)Oc2ccc(NS(=O)(=O)c3ccccc3)cc2CC1=O	1.1
O=C(CCCCCC(=O)Nc1ccccc1O)N/N=C/c1ccc(N2CCCC2)cc1	0.3
COc1ccc(S(=O)(=O)N(C)C[C@@H]2Oc3c(NS(=O)(=O)c4ccccc4)cccc3C(=O)N([C@H](C)CO)C[C@@H]2C)cc1	1.3
C[C@H](CO)N1C[C@H](C)[C@H](CN(C)Cc2ccc(C(=O)O)cc2)Oc2ccc(NC(=O)Nc3ccc4c(c3)OCO4)cc2C1=O	0.7
C[C@@H]1CCCCO[C@H](CN(C)C(=O)Nc2cccc3ccccc23)[C@@H](C)CN([C@H](C)CO)C(=O)c2cc(NC(=O)C3CCCCC3)ccc2O1	1.2
C[C@@H]1CN([C@H](C)CO)C(=O)c2cc(NS(=O)(=O)c3cn(C)cn3)ccc2O[C@@H]1CN(C)S(C)(=O)=O	1.6
C[C@@H]1CN([C@@H](C)CO)C(=O)c2cccc(NS(=O)(=O)c3ccc(Cl)cc3)c2O[C@@H]1CN(C)C(=O)Nc1ccc(C(F)(F)F)cc1	-0.2
C[C@@H]1CCCCO[C@@H](CN(C)S(=O)(=O)c2cccs2)[C@H](C)CN([C@@H](C)CO)C(=O)c2cc(NC(=O)Nc3ccc(F)cc3)ccc2O1	-0.5
C[C@H]1CCCCO[C@H](CN(C)C(=O)CCCN(C)C)[C@@H](C)CN([C@@H](C)CO)C(=O)c2cc(NS(=O)(=O)c3ccc(Cl)cc3)ccc2O1	0.1
COc1ccc(S(=O)(=O)Nc2ccc3c(c2)CC(=O)N([C@@H](C)CO)C[C@H](C)[C@@H](CN(C)C(=O)Nc2ccc(F)cc2)O3)cc1	-0.3
COc1ccc(S(=O)(=O)N(C)C[C@H]2OCCCC[C@@H](C)Oc3ccc(NC(=O)Nc4ccc(F)cc4)cc3C(=O)N([C@@H](C)CO)C[C@@H]2C)cc1	0.1
CC(C)OC(=O)N(C)C[C@H]1OCc2cnnn2CCCC(=O)N([C@@H](C)CO)C[C@@H]1C	1.1
O=C(NCc1ccccc1)C1=C[C@H](C2CCCCC2)C[C@H](OCc2ccc(CO)cc2)O1	0.3
C[C@@H]1CCCCO[C@@H](CN(C)C)[C@H](C)CN([C@H](C)CO)C(=O)c2cc(NC(=O)c3ccccc3)ccc2O1	-1.3
C[C@@H]1CN([C@@H](C)CO)C(=O)c2cc(NC(=O)Nc3ccc4c(c3)OCO4)ccc2O[C@@H]1CN(C)C(=O)Nc1ccc(F)cc1	1.9

Ordered by count of non-hydrogen atoms (low to high): part of the list above
SMILES	A1 apoptosis 2
O=C(NCc1ccccc1)C1=C[C@H](C2CCCCC2)C[C@H](OCc2ccc(CO)cc2)O1	0.3
C[C@H](CO)N1C[C@H](C)[C@H](CN(C)C(=O)Nc2ccccc2)Oc2ccc(NS(=O)(=O)c3ccccc3)cc2CC1=O	1.1
C[C@@H]1CCCCO[C@H](CN(C)C(=O)Nc2cccc3ccccc23)[C@@H](C)CN([C@H](C)CO)C(=O)c2cc(NC(=O)C3CCCCC3)ccc2O1	1.2

Remaining list, next part
SMILES	A1 apoptosis 2
C[C@H](CO)N1C[C@H](C)[C@@H](CN(C)C(=O)Nc2ccc(C(F)(F)F)cc2)Oc2ccc(NC(=O)CCCCCC(=O)Nc3ccccc3N)cc2CC1=O	-1.2
C[C@@H]1CN([C@@H](C)CO)C(=O)Cc2cc(NC(=O)Nc3ccccc3)ccc2O[C@H]1CN(C)C(=O)Nc1ccccc1	-1.7
COc1ccc(NC(=O)Nc2ccc3c(c2)C(=O)N([C@@H](C)CO)C[C@H](C)[C@H](CN(C)Cc2ccc(C(=O)O)cc2)O3)cc1	1.3
C[C@@H]1CN([C@H](C)CO)C(=O)Cc2cc(NS(=O)(=O)c3ccccc3)ccc2O[C@H]1CN(C)C(=O)Nc1cccc2ccccc12	-0.1
C[C@@H]1CN([C@@H](C)CO)C(=O)Cc2cc(NC(=O)CCCN(C)C)ccc2O[C@H]1CN(C)Cc1ccc(Oc2ccccc2)cc1	-0.3
CC(C)NC(=O)Nc1ccc2c(c1)C(=O)N([C@H](C)CO)C[C@H](C)[C@H](CN(C)C(=O)Nc1cccc3ccccc13)OCCCC[C@@H](C)O2	-0.1
C[C@@H]1CN([C@@H](C)CO)C(=O)Cc2cc(NC(=O)C3CC3)ccc2O[C@H]1CN(C)S(C)(=O)=O	-0.5
Cc1[nH]cnc1/C=N/NC(=O)CCCCC(=O)NO	1.2
CC(C)NC(=O)N(C)C[C@H]1Oc2ccc(NC(=O)C3CC3)cc2C(=O)N([C@H](C)CO)C[C@H]1C	-0.3
C[C@H](CO)N1C[C@H](C)[C@@H](CN(C)C)OCCCC[C@H](C)Oc2ccc(NS(=O)(=O)c3cccs3)cc2C1=O	0.3
O=C(N/N=C/c1ccccc1)c1ccccc1O	-4.8
COc1ccc(NC(=O)N(C)C[C@@H]2Oc3c(NC(=O)Nc4ccc5c(c4)OCO5)cccc3C(=O)N([C@@H](C)CO)C[C@@H]2C)cc1	-0.8
COc1ccc(NC(=O)Nc2ccc3c(c2)C(=O)N([C@H](C)CO)C[C@H](C)[C@@H](CN(C)C(=O)Cc2ccccc2)OCCCC[C@H](C)O3)cc1	0.0
C[C@@H]1CN([C@@H](C)CO)C(=O)CCCn2nncc2CO[C@H]1CN(C)Cc1cccc(C(=O)O)c1	0.5
Cc1ccc(S(=O)(=O)N(C)C[C@H]2Oc3ccc(NS(=O)(=O)c4ccccc4)cc3CC(=O)N([C@H](C)CO)C[C@H]2C)cc1	-1.0
C[C@@H]1CN([C@H](C)CO)C(=O)c2cccc(NC(=O)c3ccc(-c4nccs4)cc3)c2O[C@H]1CN(C)Cc1ccc(C(F)(F)F)cc1	0.2
C[C@@H]1CN([C@@H](C)CO)C(=O)c2cccc(NC(=O)c3ccncc3)c2O[C@H]1CN(C)C(=O)Nc1cccc2ccccc12	0.3
C[C@H](CO)N1C[C@H](C)[C@H](CN(C)CC2CCCCC2)Oc2ccc(NS(=O)(=O)c3cn(C)cn3)cc2C1=O	-0.7
CO[C@H]1O[C@H](CO)[C@@H](OC(=O)Nc2ccc3c(c2)OCO3)[C@@H]2OC(=O)[C@@H](Cc3ccccc3)C/C=C/C[C@H](Cc3ccccc3)C(=O)O[C@@H]12	-0.8
C[C@H](CO)N1C[C@H](C)[C@H](CN(C)Cc2ccc(Cl)c(Cl)c2)Oc2ccc(NC(=O)Cc3cn(C)c4ccccc34)cc2C1=O	0.5
C[C@H](CO)N1C[C@H](C)[C@H](CN(C)C(=O)Nc2ccccc2)Oc2ccc(NS(=O)(=O)c3ccccc3)cc2C1=O	0.2
C[C@H]1CN([C@@H](C)CO)C(=O)c2cc(N(C)C)ccc2O[C@@H]1CN(C)S(=O)(=O)c1cccs1	-0.8
C[C@H]1CN([C@@H](C)CO)C(=O)Cc2cc(NC(=O)C3CC3)ccc2O[C@H]1CN(C)C(=O)Nc1ccccc1	1.4
C[C@H]1CN([C@@H](C)CO)C(=O)CCCn2nncc2CO[C@H]1CN(C)Cc1cccc(C(=O)O)c1	1.0
C[C@H]1CN([C@@H](C)CO)C(=O)Cc2cc(NC(=O)c3ccncc3)ccc2O[C@@H]1CN(C)Cc1ccc(Cl)c(Cl)c1	0.0
C[C@@H]1CN([C@@H](C)CO)C(=O)CCCn2nncc2CO[C@@H]1CN(C)S(=O)(=O)c1cccs1	-0.6
C[C@H](CO)N1C[C@H](C)[C@H](CN(C)S(=O)(=O)c2cn(C)cn2)Oc2ccc(NS(=O)(=O)c3cn(C)cn3)cc2C1=O	-1.4
C[C@H]1CN([C@@H](C)CO)C(=O)Cc2cc(NC(=O)C3CC3)ccc2O[C@@H]1CN(C)Cc1ccc(C(=O)Nc2ccccc2N)cc1	-1.0
C=CC1CN(S(=O)(=O)c2ccc(Br)cc2)C(=O)N1c1ccc(Br)cc1 (configuration not stated)	-0.7
CNC[C@@H]1Oc2ccc(NC(=O)NC(C)C)cc2CC(=O)N([C@@H](C)CO)C[C@H]1C	0.8

Exported with bars between the fields: 9 of the compounds above.
structure | A1 apoptosis 2
C[C@H](CO)N1C[C@H](C)[C@H](CN(C)C(=O)Nc2ccccc2)Oc2ccc(NS(=O)(=O)c3ccccc3)cc2CC1=O | 1.1
O=C(CCCCCC(=O)Nc1ccccc1O)N/N=C/c1ccc(N2CCCC2)cc1 | 0.3
COc1ccc(S(=O)(=O)N(C)C[C@@H]2Oc3c(NS(=O)(=O)c4ccccc4)cccc3C(=O)N([C@H](C)CO)C[C@@H]2C)cc1 | 1.3
C[C@H](CO)N1C[C@H](C)[C@H](CN(C)Cc2ccc(C(=O)O)cc2)Oc2ccc(NC(=O)Nc3ccc4c(c3)OCO4)cc2C1=O | 0.7
C[C@@H]1CCCCO[C@H](CN(C)C(=O)Nc2cccc3ccccc23)[C@@H](C)CN([C@H](C)CO)C(=O)c2cc(NC(=O)C3CCCCC3)ccc2O1 | 1.2
C[C@@H]1CN([C@H](C)CO)C(=O)c2cc(NS(=O)(=O)c3cn(C)cn3)ccc2O[C@@H]1CN(C)S(C)(=O)=O | 1.6
C[C@@H]1CN([C@@H](C)CO)C(=O)c2cccc(NS(=O)(=O)c3ccc(Cl)cc3)c2O[C@@H]1CN(C)C(=O)Nc1ccc(C(F)(F)F)cc1 | -0.2
C[C@@H]1CCCCO[C@@H](CN(C)S(=O)(=O)c2cccs2)[C@H](C)CN([C@@H](C)CO)C(=O)c2cc(NC(=O)Nc3ccc(F)cc3)ccc2O1 | -0.5
C[C@H]1CCCCO[C@H](CN(C)C(=O)CCCN(C)C)[C@@H](C)CN([C@@H](C)CO)C(=O)c2cc(NS(=O)(=O)c3ccc(Cl)cc3)ccc2O1 | 0.1

(next part)
SMILES	A1 apoptosis 2
C[C@@H]1CCCCO[C@@H](CN(C)Cc2ccc(Cl)c(Cl)c2)[C@@H](C)CN([C@H](C)CO)C(=O)c2cc(NC(=O)CCCCCC(=O)Nc3ccccc3N)ccc2O1	-0.4
O=C(CCCCCCC(=O)Nc1ccccc1O)N/N=C/c1ccccc1OCCO	0.3
C[C@H]1CN([C@@H](C)CO)C(=O)Cc2cc(NC(=O)Nc3ccc(F)cc3)ccc2O[C@H]1CN(C)C(=O)Nc1ccccc1	0.1
O=C(O)CCCCCC(=O)N/N=C/c1ccccc1	0.5
C[C@H](CO)N1C[C@H](C)[C@H](CN(C)C)OCCCC[C@H](C)Oc2ccc(NC(=O)C3CCCCC3)cc2C1=O	0.4
Cc1ccc(S(=O)(=O)N[C@H](C(=O)NCCn2cc(CN3C(=O)COC[C@H]3c3ccccc3)nn2)C(C)C)cc1	0.7
C[C@H]1CN([C@@H](C)CO)C(=O)c2cc(NC(=O)Nc3cccc4ccccc34)ccc2O[C@@H]1CN(C)Cc1ccc2c(c1)OCO2	0.6
C[C@@H]1CN([C@H](C)CO)C(=O)c2cc(NC(=O)Cn3cnnn3)ccc2O[C@H]1CN(C)S(=O)(=O)c1cccs1	0.1
C[C@@H]1CCCCO[C@@H](CN(C)C(=O)Nc2ccccc2)[C@@H](C)CN([C@H](C)CO)C(=O)c2cc(NC(=O)Nc3cccc4ccccc34)ccc2O1	-0.2
CC(C)NC(=O)N(C)C[C@@H]1OCCCC[C@@H](C)Oc2ccc(NC(=O)c3ccncc3)cc2C(=O)N([C@H](C)CO)C[C@@H]1C	-0.7
C[C@@H]1CCCCO[C@@H](CN(C)Cc2ccc(C(F)(F)F)cc2)[C@H](C)CN([C@H](C)CO)C(=O)c2cc(NC(=O)CCCN(C)C)ccc2O1	-0.8
C[C@@H]1CN([C@@H](C)CO)C(=O)c2cccc(NS(=O)(=O)c3ccc(F)cc3)c2O[C@H]1CN(C)CC1CCCCC1	-0.6
Cc1noc(C)c1NC(=O)N(C)C[C@H]1Oc2c(NC(=O)NC(C)C)cccc2C(=O)N([C@@H](C)CO)C[C@H]1C	0.7
C[C@@H]1CCCCO[C@@H](CN(C)S(=O)(=O)c2ccccc2)[C@@H](C)CN([C@H](C)CO)C(=O)c2cc(NS(=O)(=O)c3cn(C)cn3)ccc2O1	0.8
C[C@@H]1CN([C@H](C)CO)C(=O)c2cc(NS(C)(=O)=O)ccc2O[C@H]1CN(C)Cc1ccc(Oc2ccccc2)cc1	0.9
C[C@@H]1CN([C@@H](C)CO)C(=O)Cc2cc(NC(=O)Nc3ccc(F)cc3)ccc2O[C@H]1CN(C)S(=O)(=O)c1ccc(Cl)cc1	-0.7
C[C@@H]1CN([C@H](C)CO)C(=O)Cc2cc(NC(=O)CCN3CCOCC3)ccc2O[C@H]1CN(C)Cc1ccc2c(c1)OCO2	0.2
COc1ccc(CN(C)C[C@@H]2OCCCC[C@@H](C)Oc3ccc(NC(=O)Cc4ccccc4)cc3C(=O)N([C@@H](C)CO)C[C@@H]2C)cc1	-0.2
COc1ccc(NC(=O)Nc2ccc3c(c2)C(=O)N([C@@H](C)CO)C[C@@H](C)[C@H](CN(C)Cc2ccncc2)OCCCC[C@@H](C)O3)cc1	-0.7
COc1ccc(C#Cc2ccc3c(c2)[C@]2(C(=O)N3)[C@H](C(=O)NC[C@H](O)c3ccccc3)[C@H]3C(=O)O[C@H](c4ccccc4)[C@H](c4ccccc4)N3[C@@H]2c2ccccc2OCCO)cc1	1.0
COc1ccc(S(=O)(=O)Nc2cccc3c2O[C@@H](CN(C)Cc2ccncc2)[C@@H](C)CN([C@H](C)CO)C3=O)cc1	-0.7
C[C@@H]1CCCCO[C@H](CN(C)C(=O)Nc2cccc3ccccc23)[C@@H](C)CN([C@@H](C)CO)C(=O)c2cc(NC(=O)Cc3ccccc3)ccc2O1	-1.3
C[C@H]1CCCCO[C@H](CN(C)Cc2ccncc2)[C@@H](C)CN([C@@H](C)CO)C(=O)c2cc(NS(=O)(=O)c3cccs3)ccc2O1	0.9
C[C@@H]1CN([C@H](C)CO)C(=O)CCCn2cc(nn2)CO[C@@H]1CN(C)S(=O)(=O)c1cn(C)cn1	-0.9
C[C@H]1CN([C@@H](C)CO)C(=O)Cc2cc(NC(=O)Nc3cccc4ccccc34)ccc2O[C@H]1CN(C)Cc1ccccc1	0.3
C[C@@H]1CCCCO[C@H](CN(C)Cc2ccc(C(F)(F)F)cc2)[C@@H](C)CN([C@@H](C)CO)C(=O)c2cc(NC(=O)Nc3cccc4ccccc34)ccc2O1	0.7

These rows are one share of the data; count on the stated rates, not on these rows.
